E coli growth – blocks Escherichia coli growth; OD600, 23 h; active compounds read low; OD600 absorbance (no concentration beside the values); 0.21% of 330,000 active;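 active = OD600 absorbance below the run mean of sample wells minus 3.6 SD, in any replicate, cut at about 0.56 in these data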;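 note: stock transfer was 300 nL into about 60 µL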
UCH37 DUB inh – inhibitors of human deubiquitinating enzyme UCH37; 0.33% of 330,000 active; inhibition, % (test concentration not listed); Q9Y5K5; purified proteasome/UCH37, Ub-AMC cleavage fluorescence;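 active = mean of two replicates above 20%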;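 note: 0% = compound-free wells with enzyme and 100% = wells lacking proteasome; stock transfer was 100 nL into about 20 µL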
Target sequence (Q9Y5K5 whole entry, looked up): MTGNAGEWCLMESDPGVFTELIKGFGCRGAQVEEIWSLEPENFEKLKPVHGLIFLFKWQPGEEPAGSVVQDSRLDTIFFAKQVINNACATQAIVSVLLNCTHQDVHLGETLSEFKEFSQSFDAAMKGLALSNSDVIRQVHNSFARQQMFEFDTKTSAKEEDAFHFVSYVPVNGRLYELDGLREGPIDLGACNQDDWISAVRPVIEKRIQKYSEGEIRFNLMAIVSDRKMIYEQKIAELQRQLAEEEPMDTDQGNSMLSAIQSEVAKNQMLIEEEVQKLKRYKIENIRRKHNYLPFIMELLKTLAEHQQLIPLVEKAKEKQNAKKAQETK
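Material: human UCH37 enzyme supplied as purified proteasome complex. Measure: % inhibition of Ub-AMC cleavage fluorescence. Medium: pH 7.4 Tris-HCl (50 mM) with ovalbumin, ATP-MgCl2, DTT. Times: 30 min preincubation with enzyme, 25 min cleavage at room temperature. Detection: AMC fluorescence intensity at 355/460 nm.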
B2AR ag – human beta-2 adrenergic receptor agonism by FAP | P07550 | Am2.2-beta2AR cells, FAP receptor internalization, flow cytometry; reference of the scale not given here | response, % (concentration not given with the values) | 0.43% of 340,000 active | AID 504454;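 active = response above a set limit, near 3 SD of response in nonfluorescent compounds, cut at about 42% in these data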;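 note: stock transfer was 100 nL into about 11 µL; a reference agonist was the positive control; negative values mostly stem from fluorescent compounds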
Target sequence (P07550 whole entry, looked up): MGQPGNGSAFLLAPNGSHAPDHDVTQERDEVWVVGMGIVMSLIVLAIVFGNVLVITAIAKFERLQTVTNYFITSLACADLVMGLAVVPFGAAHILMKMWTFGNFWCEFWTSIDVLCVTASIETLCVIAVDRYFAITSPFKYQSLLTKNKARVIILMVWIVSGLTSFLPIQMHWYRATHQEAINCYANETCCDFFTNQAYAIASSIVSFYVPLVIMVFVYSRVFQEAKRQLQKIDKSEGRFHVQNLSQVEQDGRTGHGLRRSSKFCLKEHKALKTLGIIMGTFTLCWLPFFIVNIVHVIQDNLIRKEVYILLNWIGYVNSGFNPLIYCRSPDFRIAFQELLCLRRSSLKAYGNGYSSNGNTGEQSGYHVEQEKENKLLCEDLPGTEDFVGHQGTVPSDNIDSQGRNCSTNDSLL
Bfl-1 A1 inh – inhibitors of the anti-apoptotic protein A1, read as caspase activation | MEF A1-2A-BIM cells, Caspase-Glo 3/7 luminescence, 3 h; percent of clofoctol response, vehicle zero | caspase activation, % (concentration not given with the values) | 0.066% of 330,000 active;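 active = over half of replicate activation scores above 10%, or exactly half above 10 with the replicate mean above 10; inconclusive = replicate mean below 10 yet half the replicates above 10; inactive = over half of replicates below 10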;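 note: wells of about 30 µL received 50 nL stock; many hits fall short of the cut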
LANA-H2A inh – blocks KSHV LANA binding to histone H2A/H2B | Q9QR71 | cell-free LANA-H2A/H2B peptide, fluorescence polarization | inhibition, % (no concentration beside the values) | 0.6% of 320,000 active; in the data active = inhibition mostly above about 10%, no sharp cut-off; inactive = mostly below about 6.7%;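 note: stock transfer was 7.5 nL into about 10 µL; 0% = median of vehicle wells and 100% = median of positive control wells; one replicate is shown; the record names a cut of 25% in any replicate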
Vif A3G – HIV-1 Vif–A3G interaction blockers – biochemical, TR-FRET, GST-Vif 1-94, biotin-A3G peptide, dose response retest, primary screen (AID 1117319); TR-FRET GST-Vif / biotin-A3G peptide binding; higher % means a stronger effect; test concentration not given here; strong numbers were not always called active; one-dose inhibition, %; IC50 in µM for titrated hits; 0.57% of 260,000 active;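 active = above the screen mean plus three standard deviations and confirmed in dose response; inconclusive = results disagree or hit not tested in dose response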;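 note: Vif residues 1-94 fused to GST binding biotinylated APOBEC3G peptide 110-148; 0% = full assay without inhibitor and 100% = GST in place of GST-Vif; retest series ran down from 100 µM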
HNF4A DNA FP – change in binding of human HNF4 alpha to DNA; AID 1224865; activity change, % at 10 µM; HNF4a-FITC DNA binding, fluorescence polarization, 1 h; 0.3% of 360,000 active; P41235; in the data active = activity change above about 30%, passing the limit was not always enough;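 note: controls were the assay level and a saturating level of protein; the project sought stronger binding though the title names inhibitors; some compounds called inactive have numbers as strong as hits; positive values seem to mean higher polarization but the record does not say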
* = called active by the depositor; ? = inconclusive; . = not tested or not shown.

#1 NC(CCCCCP(=O)(c1ccccc1)c1ccccc1)C(=O)O (stereo not given)
#2 CCN(C(=O)c1ccc2c(OC)n(CC)nc2c1)c1ccc(OC)cc1
#3 COc1ccccc1NC(=O)Oc1cccc(OC(=O)c2ccccc2)c1
#4 COc1ccc(Cn2ccc(=O)c(Cc3c(Cl)cccc3Cl)c2C)cc1
#5 C#CCOCCOCCOCCNc1nc(N2CCN(C(=O)Cn3cc(CCCN=C(N)N)nn3)CC2)nc(N2CCN(C(=O)[C@H](C)n3cc(CCCN=C(N)N)nn3)CC2)n1
#6 CCOC(=O)/C(=C/C=C/c1ccccc1)NC(=O)c1ccccc1
assay / entry	1	2	3	4	5	6
E coli growth	0.66	0.65	0.66	0.71	.	.
UCH37 DUB inh	0.5	-43	2.9	-32	1.4	.
B2AR ag	.	3	-2	1	1	1
Bfl-1 A1 inh	2.2	0.8	-1.4	0.0	-0.4	0.2
LANA-H2A inh	-0.5	2.1	-4.6	-3.3	-2.0	5.3
Vif A3G	-1%	-2%	0%	0%	6%	.
HNF4A DNA FP	.	0.4	1.9	32	2.8	-1.4

#7 COc1cccc(N(CC(=O)NC2CCCCC2)C(=O)c2snc(C(N)=O)c2N)c1
#8 CCOc1ccccc1C(c1c(O)nc(SC)[nH]c1=O)c1c(O)nc(SC)[nH]c1=O
#9 O=C(COC(=O)c1cc(S(=O)(=O)N2CCCCC2)ccc1N1CCOCC1)NCCc1ccc(F)cc1
#10 O=S(=O)(NCc1cccs1)c1ccc(Cl)s1
#11 Cc1cc(C(=O)NC2CCCc3ccccc32)ccc1[N+](=O)[O-] (stereo not given)
#12 COc1ccc(-c2nsc3c(N4CCN(C(=O)c5ccco5)CC4)ncnc23)cc1
assay / entry	7	8	9	10	11	12
E coli growth	0.69	0.66	0.63	0.65	0.69	0.7
UCH37 DUB inh	-9.8	6.9	-0.8	2.4	-1.5	-36
B2AR ag	-6	15	-2	9	-1	-16
Bfl-1 A1 inh	1.2	0.6	0.2	1.0	0.8	-0.1
LANA-H2A inh	-3.6	-0.7	0.2	1.3	2.5	2.2
Vif A3G	.	.	.	-1%	.	0%
HNF4A DNA FP	2.0	-2.2	2.8	-2.8	-1.1	1.4

Ordered by count of non-hydrogen atoms (largest number first): some entries from above
#9 O=C(COC(=O)c1cc(S(=O)(=O)N2CCCCC2)ccc1N1CCOCC1)NCCc1ccc(F)cc1
#7 COc1cccc(N(CC(=O)NC2CCCCC2)C(=O)c2snc(C(N)=O)c2N)c1
#4 COc1ccc(Cn2ccc(=O)c(Cc3c(Cl)cccc3Cl)c2C)cc1
#6 CCOC(=O)/C(=C/C=C/c1ccccc1)NC(=O)c1ccccc1
#11 Cc1cc(C(=O)NC2CCCc3ccccc32)ccc1[N+](=O)[O-] (stereo not given)
#10 O=S(=O)(NCc1cccs1)c1ccc(Cl)s1
assay / entry	9	7	4	6	11	10
E coli growth	0.63	0.69	0.71	.	0.69	0.65
UCH37 DUB inh	-0.8	-9.8	-32	.	-1.5	2.4
B2AR ag	-2	-6	1	1	-1	9
Bfl-1 A1 inh	0.2	1.2	0.0	0.2	0.8	1.0
LANA-H2A inh	0.2	-3.6	-3.3	5.3	2.5	1.3
Vif A3G	.	.	0%	.	.	-1%
HNF4A DNA FP	2.8	2.0	32	-1.4	-1.1	-2.8

Going on with the list.
#13 O=C(NCc1cccs1)C1CCCN1S(=O)(=O)c1ccccc1F (stereo not given)
#14 CC(Oc1ccc2c(-c3ccccc3)cc(=O)oc2c1)C(=O)N[C@H](Cc1c[nH]c2ccccc12)C(=O)O (stereo not given in full)
#15 CCN(CC)c1ccc(NC(=O)CCCOc2cccc(C)c2)cc1
#16 CCc1ccc(CN(C)C(=O)c2ccc3c(=O)n4c(nc3c2)CCC4)cc1
#17 O=C(NCCNC(=O)C(F)(F)F)c1ccncc1
#18 CCOC(=O)C/C(C)=N/NC(=O)c1cccs1
assay / entry	13	14	15	16	17	18
E coli growth	0.75	0.78	0.68	0.69	0.7	.
UCH37 DUB inh	-1.6	8.2	3.8	-4.4	4.9	.
B2AR ag	9	4	-1	-1	-8	12
Bfl-1 A1 inh	-0.3	2.4	.	-0.4	0.1	-0.2
LANA-H2A inh	-3.6	-6.4	.	1.0	-1.6	-0.5
Vif A3G	4%	.	2%	-10%	-1%	21%
HNF4A DNA FP	3.1	2.2	0.8	0.5	-0.2	4.6

#19 Cc1ccc(NC(=O)c2cc(N3C(=O)C=CC3=O)ccc2N2CCOCC2)cc1
#20 N=C1/C(=C\c2coc3ccc(O)cc3c2=O)C(=O)N=C2SC=CN12
#21 COc1ccccc1CNS(=O)(=O)c1ccc(-c2cnc(C3CC3)o2)cc1
#22 COc1ccc(-n2c(C)cc(=O)c3c2CC(C)(C)CC3=O)cc1
#23 CN(Cc1ccccn1)C(=O)CC1C(=O)NCCN1Cc1ccc(F)cc1Cl (stereo not given)
#24 O=C(N/C(=C/C=C\c1ccccc1)C(=O)N1CCOCC1)c1ccc(Br)cc1
assay / entry	19	20	21	22	23	24
E coli growth	0.62	0.65	0.7	0.74	0.66	0.68
UCH37 DUB inh	-1.0	9.1	-2.4	2.6	-6.2	6.0
B2AR ag	123*	-6	42	-6	0	-1
Bfl-1 A1 inh	.	-0.9	-0.6	0.7	0.2	-0.1
LANA-H2A inh	.	-0.7	2.1	1.5	-2.1	-0.4
Vif A3G	.	?	-7%	26%	3%	-6%
HNF4A DNA FP	-1.4	30	-1.5	-0.9	-3.9	-3.1

#25 COc1ccc(-c2ccc(SCC(=O)Nc3nnc(C)s3)nn2)cc1
#26 CCC(=O)Nc1nnc(S(=O)(=O)N(CC(C)C)c2ccccc2)s1
#27 CCOC(=O)c1c(C)[nH]c(C(=O)COC(=O)CCSc2ccccc2)c1C
#28 COc1ccc(/C(C)=N/NC(=O)CNC(=O)c2ccncc2)cc1
#29 CCOC(=O)N1CCN(C(=O)COc2ccc(Cl)c(C)c2)CC1
#30 CC1(C)Cc2nc3sc4c(SCC(=O)O)ncnc4c3cc2CO1
assay / entry	25	26	27	28	29	30
E coli growth	0.66	0.67	0.72	.	0.7	0.71
UCH37 DUB inh	2.4	2.5	-0.7	.	5.4	3.2
B2AR ag	0	-5	0	-7	3	4
Bfl-1 A1 inh	-1.7	-0.4	1.3	0.0	0.4	-0.5
LANA-H2A inh	1.1	3.5	5.0	6.3	0.2	-3.5
Vif A3G	8%	3%	-16%	.	3%	2%
HNF4A DNA FP	3.6	0.4	-3.9	0.8	-1.5	2.8

#31 CCCc1nn2c(=O)cc(CSCC(=O)Nc3cccc(OC)c3)nc2s1
#32 CCOc1ccc(CNS(=O)(=O)c2cc(CN3C(=O)c4cccnc4C3=O)ccc2OC)cc1
#33 CC(=O)NC1C2CN3CCN(C2)CC1(Cc1ccccc1)C3 (stereo not given)
#34 CC(=O)Nc1ccc(NCC(O)COc2ccccc2)cc1 (stereo not given)
#35 COc1ccc(CNCc2ccncc2)c(OC)c1
#36 O=C(CCCOc1ccccc1)N1CCN(S(=O)(=O)c2ccccc2)CC1
assay / entry	31	32	33	34	35	36
E coli growth	0.67	0.67	0.67	0.69	0.66	0.71
UCH37 DUB inh	0.3	3.8	6.9	2.4	0.9	2.9
B2AR ag	4	6	-8	-4	-1	5
Bfl-1 A1 inh	0.3	-0.7	0.8	-1.8	0.5	-0.1
LANA-H2A inh	2.5	-3.8	.	1.2	0.5	0.9
Vif A3G	.	.	7%	27%	.	.
HNF4A DNA FP	-0.7	3.6	1.4	6.9	1.1	2.2

#37 CC(C)c1ccc(CN2CCN(C(=O)CCl)CC2)cc1
#38 CC1CCCN(S(=O)(=O)c2ccc3c(c2)CCN3C(=O)C2CCC2)C1 (stereo not given)
#39 O=C(CCl)Nc1cc(S(=O)(=O)N2CCOCC2)ccc1N1CCOCC1
#40 NNC(=S)NCCc1ccccc1
#41 CCNC(=S)N1CCN(S(=O)(=O)c2ccc(C)cc2)CC1
#42 Cc1ccc(S(=O)(=O)N2CCCCC2)cc1NC(=O)c1cc2ccccc2o1
assay / entry	37	38	39	40	41	42
E coli growth	0.68	0.71	0.66	0.71	0.68	0.72
UCH37 DUB inh	5.1	6.5	0.7	-0.5	-0.1	2.6
B2AR ag	3	-16	-8	-1	-4	1
Bfl-1 A1 inh	.	-0.5	1.6	0.1	-0.6	-1.4
LANA-H2A inh	.	1.8	-4.7	-0.9	0.3	-1.2
Vif A3G	.	-6%	19%	24%	-5%	-6%
HNF4A DNA FP	-2.9	-2.4	-4.0	6.7	0.2	2.3

#43 CS(=O)(=O)N(CC(=O)N1CCN(c2ccccc2)CC1)c1cccc(Br)c1
#44 CCOC(=O)C1CCN(C(=O)c2cccc(NS(=O)(=O)c3ccc(Br)cc3)c2)CC1
#45 Cc1sc2ncnc(NCCc3ccc(S(N)(=O)=O)cc3)c2c1C
#46 CC(=O)Nc1ccc(Sc2ncnc3scc(-c4ccccc4)c23)cc1
#47 CC(C)OC(=O)c1ccc(NC(=O)c2ccco2)cc1
#48 CCOC(=O)Cn1c(=O)n(C2CCCC2)c(=O)c2ccccc21
assay / entry	43	44	45	46	47	48
E coli growth	0.7	0.71	0.67	0.7	0.7	0.75
UCH37 DUB inh	5.1	0.5	6.4	4.2	-3.4	-1.9
B2AR ag	-6	8	1	-7	-8	-7
Bfl-1 A1 inh	0.0	0.2	0.3	0.9	0.5	0.0
LANA-H2A inh	2.9	-0.6	3.7	0.0	2.2	1.8
Vif A3G	?	-2%	-80%	.	-1%	13%
HNF4A DNA FP	-1.6	-3.4	-0.6	4.1	0.4	-3.9

#49 CN(Cc1cccc(Cl)c1Cl)C(=O)c1ccc(NC(=O)CC#N)cc1
#50 O=C(NNC(=O)C1CCC1)c1ccc(Cl)cc1
#51 CC(NC(=O)CC(O)(C(F)(F)F)C(F)(F)F)c1ccccc1 (stereo not given)
#52 N=c1c(S(=O)(=O)c2ccc(Br)cc2)cc2c(=O)n3ccccc3nc2n1Cc1ccco1
#53 COc1cc(/C=N/NC(=O)c2cc(-c3ccc4c(c3)OCO4)n[nH]2)ccc1O
#54 O=C(NC1CCN(C(=O)Nc2cccc(F)c2)CC1)C1CCCCC1
assay / entry	49	50	51	52	53	54
E coli growth	0.68	0.69	0.67	0.73	.	0.73
UCH37 DUB inh	4.1	3.2	3.6	-83	.	2.6
B2AR ag	-8	3	2	9	21	0
Bfl-1 A1 inh	0.7	1.2	-0.6	-1.0	-0.2	0.8
LANA-H2A inh	1.2	7.9	4.1	1.6	1.8	0.0
Vif A3G	.	.	-3%	.	23%	23%
HNF4A DNA FP	3.7	-0.3	0.7	-35	-0.5	1.7

#55 COc1ccccc1/C=C/C(=O)OCCN1CCOCC1
#56 Cc1nn(-c2ccccc2)c(C)c1C(=O)OCC(=O)Nc1cccc(S(N)(=O)=O)c1
#57 CN(C)CCN(C(=O)c1ccc2c(c1)OCCO2)c1nc2cc3c(cc2s1)OCO3
#58 CC1Cn2c(nnc2-c2cccs2)S1 (stereo not given)
#59 COCCn1c(=O)[nH]c2cc(C(=O)NCCN3CCN(c4ccc(OC)cc4)CC3)ccc2c1=O
#60 O=C(CSc1ccsc1[N+](=O)[O-])NCc1ccco1
#61 CC1CCCCC1NC(=S)Nc1ccc(Cl)cc1Cl (stereo not given)
assay / entry	55	56	57	58	59	60	61
E coli growth	0.66	0.69	0.66	0.68	0.7	0.68	0.68
UCH37 DUB inh	-39	1.9	2.7	-0.6	-6.7	5.0	7.7
B2AR ag	-4	-1	-1	-2	-3	-4	6
Bfl-1 A1 inh	-0.1	-1.6	0.6	0.4	1.5	0.1	0.5
LANA-H2A inh	-5.7	-1.2	-3.2	-1.9	-3.8	2.8	-0.5
Vif A3G	-7%	.	.	.	15%	14%	.
HNF4A DNA FP	-1.4	3.3	1.2	1.5	-1.1	-11	-4.1

Source: PubChem

Hits appear at their usual frequency; any-hit rate near 2.1%.
